LANA-H2A inh = blocks KSHV LANA binding to histone H2A/H2B; cell-free LANA-H2A/H2B peptide, fluorescence polarization; inhibition, % (no concentration beside the values); hit rate 0.6% among 320,000; Q9QR71; in the data active = inhibition mostly above about 10%, no sharp cut-off; inactive = mostly below about 6.7%;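 note: stock transfer was 7.5 nL into about 10 µL; 0% = median of vehicle wells and 100% = median of positive control wells; one replicate is shown; the record names a cut of 25% in any replicate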
A1 inh = inhibitors of the anti-apoptotic protein A1, read as caspase activation; MEF A1-2A-BIM cells, Caspase-Glo 3/7 luminescence, 3 h; percent of clofoctol response, vehicle zero; caspase activation, % (test concentration not listed); hit rate 0.066% among 330,000; AID 2462;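 active = over half of replicate activation scores above 10%, or exactly half above 10 with the replicate mean above 10; inconclusive = replicate mean below 10 yet half the replicates above 10; inactive = over half of replicates below 10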;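 note: wells of about 30 µL received 50 nL stock; many hits fall short of the cut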
AF4-AF9 inh = inhibitors of human MLL-AF4/AF9 interaction; AID 651704; P42568; AlphaScreen, biotin-AF4 peptide binding to FLAG-AF9; hit rate 0.47% among 350,000; inhibition, % at 10 µM;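 active = every replicate reaching a set inhibition limit, whatever the replicate mean, cut at about 25% in these data; inconclusive = mean inhibition reaches that limit but some replicates miss it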;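 note: 0% = plate neutral control median and 100% = total signal loss; the record names both 10 and 1 µM as test concentration; the first replicate is given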
Target sequence (P42568 whole entry, looked up): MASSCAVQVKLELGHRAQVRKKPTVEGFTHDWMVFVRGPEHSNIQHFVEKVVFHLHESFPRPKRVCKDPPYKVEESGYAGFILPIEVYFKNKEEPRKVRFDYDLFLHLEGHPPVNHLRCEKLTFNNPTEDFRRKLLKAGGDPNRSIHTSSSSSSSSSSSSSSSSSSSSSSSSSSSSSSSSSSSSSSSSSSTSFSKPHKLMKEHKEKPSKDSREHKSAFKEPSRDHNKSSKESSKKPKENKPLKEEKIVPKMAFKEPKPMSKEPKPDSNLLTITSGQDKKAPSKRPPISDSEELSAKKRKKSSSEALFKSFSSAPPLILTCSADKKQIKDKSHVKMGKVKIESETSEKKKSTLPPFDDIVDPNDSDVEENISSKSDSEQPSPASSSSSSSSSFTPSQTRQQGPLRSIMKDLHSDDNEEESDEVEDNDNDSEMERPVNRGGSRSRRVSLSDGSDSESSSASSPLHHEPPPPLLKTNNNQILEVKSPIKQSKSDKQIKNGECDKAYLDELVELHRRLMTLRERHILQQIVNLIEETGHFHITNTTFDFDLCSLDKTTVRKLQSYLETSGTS
RanGTP-Imp inh = inhibitors of RanGTP-importin-beta interaction, primary screen, biochemical, FRET, CFP-Ran, YFP-importin-beta, homogeneous. hit rate 1.1% among 300,000. cell-free CFP-Ran/YFP-importin-beta FRET ratio. inhibition, % (no concentration beside the values);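 active = most replicates above 15%; inconclusive = exactly half above 15%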;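 note: 0% = DMSO wells and 100% = Ran loaded with GDP instead of GTP; wells of about 40 µL received 100 nL stock; the first replicate is given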
Beta apoptosis = beta cell apoptosis inhibition; INS-1E cytokine-induced death, ATP luminescence, 48 h; percent of positive-control rescue, neutral wells zero; protection from apoptosis, % (test concentration not listed); hit rate 0.8% among 300,000;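 active = all replicates at 75% or more, or half of them and the mean; inconclusive = half reach 75% but not the mean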;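 note: 0% = cytokine-treated negative control wells and 100% = positive control rescue; higher means more ATP so stronger rescue from cytokine killing; wells of about 40 µL received 100 nL stock; the first replicate is given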
Calb FLC = affects C. albicans growth with fluconazole. hit rate 0.57% among 300,000. AID 1979. growth inhibition, % (test concentration not listed). C. albicans CaCi-2 (fluconazole-resistant clinical isolate) + fluconazole, Alamar Blue growth, 48 h;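 active = most replicates above 75%; inconclusive = exactly half above 75%; inactive = most below 75%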;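 note: all wells also contain fluconazole at 8 µg/ml as a sub-toxic cotreatment; 0% = median of DMSO wells and 100% = median of geldanamycin control wells; wells of about 8 µL received 7.5 nL stock; the first replicate is given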
T cruzi inh = blocks replication of Trypanosoma cruzi. T. cruzi beta-gal in NIH3T3, luminescence, 90 h. inhibition, % (test concentration not listed). hit rate 1.4% among 300,000. AID 1885;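 active = mean inhibition across valid replicates above about 55%, limit read from the data; inconclusive = mean below that limit but half or more replicates reach it; inactive = mean below it, under half of replicates reach it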;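 note: signal also drops with host cell toxicity which is not excluded here; 0% = plate median of DMSO wells and 100% = zero luminescence signal; higher percent means less beta-gal luminescence so fewer parasites; stock transfer was 50 nL into about 50 µL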
Vif A3G = inhibitors of Vif binding to APOBEC3G peptide, primary screen, biochemical, TR-FRET, GST-Vif 1-94, biotin-A3G peptide, dose response retest (AID 1117319). inhibition, %; hits with a dose series show IC50 in µM. hit rate 0.57% among 260,000. TR-FRET GST-Vif / biotin-A3G peptide binding; higher % means a stronger effect; test concentration not given here; strong numbers were not always called active;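 active = above the screen mean plus three standard deviations and confirmed in dose response; inconclusive = results disagree or hit not tested in dose response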;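 note: Vif residues 1-94 fused to GST binding biotinylated APOBEC3G peptide 110-148; 0% = full assay without inhibitor and 100% = GST in place of GST-Vif; retest series ran down from 100 µM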
The depositor's hits bear a star; u = inconclusive; x = not tested or not shown; & = joins results of further samples.

SMILES	LANA-H2A inh	A1 inh	AF4-AF9 inh	RanGTP-Imp inh	Beta apoptosis	Calb FLC	T cruzi inh	Vif A3G
COc1cccc(NS(=O)(=O)c2ccc3[nH]cc(C(=O)NCCN4CCOCC4)c(=O)c3c2)c1	-0.8	0.6	x	1.7	-5	-18	0	13%
O=C(O)CCc1nc(-c2ccc(Cl)cc2)no1	0.9	-1.5	x	-0.9	-4	13	-8	1%
O=S(=O)(NCc1cccs1)c1cccc(S(=O)(=O)N2CCCCC2)c1	-1.4	-0.2	x	-1.6	5	-1	8	0%
COc1ccc(F)cc1C(=O)C1CCCN(C(=O)Cc2c(C)noc2C)C1 (stereo not drawn)	-4.7	-0.1	-1.1	2.1	-3	1	-3	u
O=C1CSC(c2cn(-c3ccccc3)nc2-c2cc3ccccc3oc2=O)N1Cc1ccccc1 (stereo not drawn)	3.5	-1.4	x	-0.6	14	10	42	-6%
Nn1c(SCc2cn3cc(Cl)ccc3n2)nnc1-c1ccncc1	1.0	0.1	-15	4.5	-2	13	-7	11%
O=C(COc1ccc(S(=O)(=O)N2CCCCC2)cc1)NCC1CCCO1 (stereo not drawn)	-2.9	0.3	-0.3	3.9	-8	38	9	x
O=C(c1ccc2c(c1)OCO2)N1CCCC1	1.2	-0.2	x	-2.3	-2	22	-10	-2%
COc1ccc(-n2ncc3c(=O)n(Cc4c(F)cccc4Cl)cnc32)cc1	2.5	0.6	0.0	x	-3	2	x	x
Cc1ccc(S(=O)(=O)N(C)CC(=O)NCCCn2nc(C)cc2C)cc1	3.9	0.9	-18	x	2	x	x	x
CN(CC(=O)Nc1ccc(F)cc1)C(=O)COC(=O)Cc1cccs1	6.0	1.4	-0.7	-0.7	-2	2	-10	-1%
Cc1ccc(S(=O)(=O)Nc2cc(=O)[nH]c(SCc3ccccc3Cl)n2)cc1	-5.1	-0.8	2.9	5.7	11	-3	u	u
CCCCCCCCOC(=O)CCc1c(C)[nH]c(=S)[nH]c1=O	-2.4	0.3	x	4.5	-3	-8	-13	-4%
O=[N+]([O-])c1ccc(CCn2ccnc2)cc1	-0.4	0.7	-0.9	-2.3	-3	-5	31	7%
COc1cccc(/C=C/C(=C2/C(=O)N(c3ccccc3)N=C2C)c2ccc(Br)cc2)c1OC	0.4	-0.9	x	-6.5	x	u	-13	x
O=C(COc1ccc2c3c(c(=O)oc2c1)CCCC3)NCc1ccccn1	0.8	0.1	-1.4	3.2	-5	8	0	-3%
O=C(Nc1cccc(F)c1)c1coc(=O)c(Br)c1	-1.9	-2.6	1.7	1.2	-1	-4	5	x
Cc1cccc(-n2nnc(C(=O)N3CCc4ccccc4C3)c2N)c1	-3.5	-2.8	x	u	1	-11	11	2%
CC(C)CCn1c(SCCc2ccccc2)nc2c1c(=O)[nH]c(=O)n2C	3.6	-1.3	x	0.5	-2	-2	9	3%
O=C(Oc1coc(CSc2nnc(NC(=O)c3cccs3)s2)cc1=O)c1ccccc1	-2.3	-0.2	-4.1	1.6	0	-7	-9	u
CCc1nnc(NC(=O)CN2CCCC(C)C2)s1 (stereo not drawn)	2.3	-0.7	2.9	-4.2	-5	6	-12	x
CC1Cc2ccccc2N1C(=O)Cn1c(=O)oc2cc(S(=O)(=O)N3CCCCC3)ccc21 (stereo not drawn)	-2.4	0.0	-0.1	5.1	-1	5	7	-5%
CCCN1CCC(=NNC(=O)c2ccc(Br)o2)CC1	8.4	1.1	0.8	-2.8	-4	1	-9	31%
Fc1ccc(Oc2ccnc(Cl)n2)c(Cl)c1	-4.7	0.1	3.6	2.5	-1	13	-15	x
Cc1ccc(C(=O)c2ccc([N+](=O)[O-])cc2)c(C)c1	-6.2	-0.4	x	-3.5	-7	-10	13	2%
Later entries
SMILES	LANA-H2A inh	A1 inh	AF4-AF9 inh	RanGTP-Imp inh	Beta apoptosis	Calb FLC	T cruzi inh	Vif A3G
Cc1ccc(CC(=O)N2CCN(C(=O)C3CCCO3)CC2)cc1 (stereo not drawn)	6.4	0.3	3.6	-1.4	-2	-3	-10	1%
Cc1ccc(NC(=O)c2cc(-n3cnnc3)ccc2Cl)cc1	-0.7	-0.1	x	6.7	5	6	-3	22%
Cc1cccn2c(=O)nc(SCC(=O)N3CCC(C)CC3)nc12	0.1	-0.7	-3.9	0.8	2	-5	-11	-8%
CCS(=O)(=O)N1CCC(C(=O)NCCN2CCN(Cc3ccccc3)CC2)CC1	-1.7	0.1	-9.4	1.9	-4	-9	11	32%
CC(CNC(=O)c1cc(Cl)ccc1[N+](=O)[O-])NC(=O)c1cc(Cl)ccc1[N+](=O)[O-] (stereo not drawn)	-1.4	-1.0	x	-0.2	1	2	-3	-1%
COc1cc(C(=O)Nc2nnc(CC(=O)N3CCOCC3)s2)cc(OC)c1OC	17*	0.1	x	4.7	-8	2	0	4%
CSc1ccc(S(=O)(=O)NCC(=O)OC2CCOC2=O)cc1[N+](=O)[O-] (stereo not drawn)	-0.8	-0.3	-1.1	-1.7	-5	1	1	-4%
O=C(O)CSc1sc(=S)sc1SCC(=O)O	-3.4	0.8	x	-0.2	3	-2	-33	5%
O=C(O)c1cccc(-n2cccc2/C=C\[N+](=O)[O-])c1	2.7	-0.4	-3.9	0.3	0	20	-25	u
O=C(C1CCC(CNS(=O)(=O)c2cccc3cccnc23)CC1)N1CCc2ccccc21 (stereo not drawn)	0.7	1.2	-0.2	-0.5	x	-5	28	9%
CCN(CC)CCn1cnc2c1c(=O)[nH]c(=O)n2Cc1ccccc1	0.4	-0.2	-0.9	-1.1	-7	4	-8	11%
CCCS(=O)(=O)N1CCN(C(=O)c2ccc(-c3ccccc3)cc2)CC1	-1.2	0.1	x	2.1	-5	13	-10	6%
S=C(NCCC1=CCCCC1)Nc1ccc(Cl)cc1	2.2	-1.3	2.0	1.7	3	u	-7	-3%
O=C(Cc1ccc(Cl)cc1)NCCS(=O)(=O)N1CCN(c2ccccc2)CC1	-6.3	-0.6	-4.5	-1.5	1	-13	10	-6%
CCCc1ccc2oc(C(=O)N3CCN(c4cnccn4)CC3)c(C)c2c1	0.1	0.5	1.5	0.2	-2	-3	25	6%
CCOc1ccc(N2CC(C(=O)NCc3ccc(C)n3C)CC2=O)cc1 (stereo not drawn)	2.7	0.5	2.3	x	-32	8	x	-6%
Cc1ccc(C(C(=O)Nc2ccc(C(C)C)cc2)N(C)C(=O)c2ccc(=O)[nH]c2)cc1 (stereo not drawn)	1.3	-0.2	0.2	-6.6	2	-1	23	-13%
O=S(=O)(c1ccccc1)N1CCN(Cc2ccccc2C(F)(F)F)CC1	-4.4	0.6	x	x	-1	x	x	-2%
COc1ccc2oc(C(=O)Nc3nccs3)c(C)c2c1	1.7	0.4	-15	x	15	1	-10	-6%
CCSc1nc(O)c(C2OC(=O)c3c2ccc(OC)c3OC)c(=O)n1CC (stereo not drawn)	-2.9	0.3	-4.0	8.7	2	-15	-19	0%
Cc1cc(C)n(-c2nc3c(c(=O)[nH]c(=O)n3C)n2CC(O)c2ccccc2)n1 (stereo not drawn)	1.8	-0.2	x	5.4	-3	-1	4	3%
CCOC(=O)C1CCN(C2CCN(Cc3nc(-c4ccccc4)no3)CC2)CC1	-1.9	-0.1	1.1	-0.3	-6	-25	9	16%
CCCS(=O)(=O)N1CCC(C(=O)N2CCN(C(=O)OCC)CC2)CC1	1.1	2.8	x	x	-10	x	x	-2%
O=C(NN1CCOCC1)c1ccc(Cl)s1	-2.2	-0.3	0.7	-2.2	2	0	4	26%
COc1ccc(C(c2nnnn2Cc2ccccc2)N2CCN(c3ccccc3)CC2)cc1 (stereo not drawn)	0.5	0.8	x	u	1	5	13	13%&0%
Remaining list, next part.
SMILES	LANA-H2A inh	A1 inh	AF4-AF9 inh	RanGTP-Imp inh	Beta apoptosis	Calb FLC	T cruzi inh	Vif A3G
Cc1occc1-c1nnc(SCC(=O)Nc2ccccc2)n1CCc1ccccc1	-1.3	-0.1	x	2.0	6	-4	-7	2%
CC(C)N1C(=O)c2ccccc2C1C(=O)NC1CCCCCC1 (stereo not drawn)	-0.1	-0.5	x	0.6	2	-3	-39	12%
O=C(OCC(=O)N1CCC(c2ccccc2)=N1)c1ccc([N+](=O)[O-])s1	2.5	-0.6	3.7	-1.4	3	-5	55*	2%
Cc1nc2cc(CO)ccc2n1C	-3.5	-0.8	x	-3.1	-6	1	-19	-3%
Cc1coc2cc3oc(=O)c(CCC(=O)NCCCN4CCCC4=O)c(C)c3cc12	-2.0	2.1	-1.4	u	-7	9	11	x
COc1cc(C(C(=O)NC2CCCCC2)N(C(=O)c2snc(C(N)=O)c2N)c2ccc(C)cc2)ccc1O (stereo not drawn)	-0.8	0.8	-4.3	0.9	-1	14	12	-6%
Cc1onc(-c2ccccc2)c1CNC(=O)CN1C(=O)c2ccccc2C1=O	1.4	0.3	-5.9	-0.9	0	5	x	x
Cc1nc(NCc2ccccc2)c2cc[nH]c2n1	1.9	-1.5	-1.4	0.5	7	7	10	68%
COc1ccc(CN2CCN(C(=O)CCC(=O)c3ccc(C)s3)CC2)cc1OC	5.1	0.8	-1.6	x	-2	x	x	6%
CCn1c(SCC(=O)NC2CCCCC2)nnc1-c1cccs1	-8.2	-0.7	-79	u	1	-6	-9	-3%
CC(C)(O)C(=O)NN(Cc1ccccc1)c1ccccc1	-3.0	0.0	x	3.0	0	10	-7	1%
COc1ccc(N2C(=O)CC3(CCCC3)CC2=O)cc1	-3.4	0.3	x	-1.4	x	10	-5	x
Cc1ccc2cc(/C=C/C(=O)c3ccco3)c(Cl)nc2c1	5.1	0.0	1.0	-14	-8	25	-8	u
COc1ccc(CN2CCn3nc(C(=O)NC(C)C)cc3C2=O)cc1	6.6	0.9	-1.3	-0.2	-2	-4	-3	3%
O=S(=O)(Nc1ccc2cn[nH]c2c1)c1ccc(C(F)(F)F)cc1	-0.6	-0.8	-0.5	x	-2	x	x	x
CC(=O)Nc1nnc(SCc2ccccc2F)s1	-0.2	-0.1	x	-3.8	-8	6	3	-3%
O=C(CCc1nnc(Cc2ccc3c(c2)OCO3)o1)NCc1nc2ccccc2s1	x	x	-0.4	0.8	x	-29	20	0%
CCc1c(C)sc(NC(=O)CC#N)c1C#N	0.1	0.0	7.7	-2.2	5	15	-15	21%
COc1ccc(S(=O)(=O)N2CCC(C(=O)NCc3ccncc3)CC2)cc1	2.6	-1.4	-6.6	9.5	x	-6	8	x
Cn1c(CC(=O)Nc2ccccc2Cl)nnc1SCC(=O)NC1CCCCC1	2.4	0.1	-0.2	1.4	0	-2	-10	x
NC(=O)CCn1c2ccccc2c2ccccc21	-1.6	0.6	-0.8	2.6	-2	13	-13	x
COc1cccc(C(=O)Nc2ncc3c(n2)CC(C)(C)CC3=O)c1	-6.1	0.7	x	-0.2	-1	14	0	2%
Cc1nn(C)cc1CN(C)C(=O)CCc1nnc(CCC2CCCCC2)o1	1.0	0.8	2.1	-5.6	-6	-3	-9	2%
COc1ccc(NC2CCCN(C(=O)COc3ccc(C)cc3)C2)cc1 (stereo not drawn)	0.6	0.7	6.2	-0.9	3	-8	14	x
C[C@H]1CN(CCc2ccccc2)C(=O)[C@@H]1CC(=O)NCc1ccccc1	0.8	0.8	-0.6	-2.2	-5	-3	-13	x

Assay outcomes: PubChem BioAssay, several laboratories
